# A1 inh: inhibitors of the anti-apoptotic protein A1, read as caspase activation; caspase activation, % (concentration not given with the values); 330,000 tested, 0.066% active; MEF A1-2A-BIM cells, Caspase-Glo 3/7 luminescence, 3 h; percent of clofoctol response, vehicle zero;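 active = over half of replicate activation scores above 10%, or exactly half above 10 with the replicate mean above 10; inconclusive = replicate mean below 10 yet half the replicates above 10; inactive = over half of replicates below 10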;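 note: wells of about 30 µL received 50 nL stock; many hits fall short of the cut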
# HNF4A DNA FP: change in binding of human HNF4 alpha to DNA. HNF4a-FITC DNA binding, fluorescence polarization, 1 h. AID 1224865. P41235. activity change, % at 10 µM. 360,000 tested, 0.3% active; in the data active = activity change above about 30%, passing the limit was not always enough;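 note: controls were the assay level and a saturating level of protein; the project sought stronger binding though the title names inhibitors; some compounds called inactive have numbers as strong as hits; positive values seem to mean higher polarization but the record does not say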
# Ecoli growth: inhibitors of Escherichia coli growth. AID 1053175. 330,000 tested, 0.21% active. OD600, 23 h; hits give low values. OD600 absorbance (no concentration beside the values);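 active = OD600 absorbance below the run mean of sample wells minus 3.6 SD, in any replicate, cut at about 0.56 in these data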;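 note: stock transfer was 300 nL into about 60 µL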
# B2AR ag: human beta-2 adrenergic receptor agonism by FAP; P07550; Am2.2-beta2AR cells, FAP receptor internalization, flow cytometry; reference of the scale not given here; response, % (concentration not given with the values); 340,000 tested, 0.43% active; AID 504454;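 active = response above a set limit, near 3 SD of response in nonfluorescent compounds, cut at about 42% in these data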;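 note: stock transfer was 100 nL into about 11 µL; a reference agonist was the positive control; negative values mostly stem from fluorescent compounds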
# LANA-H2A inh: blocks KSHV LANA binding to histone H2A/H2B | cell-free LANA-H2A/H2B peptide, fluorescence polarization | 320,000 tested, 0.6% active | inhibition, % (concentration not given with the values) | Q9QR71; in the data active = inhibition mostly above about 10%, no sharp cut-off; inactive = mostly below about 6.7%;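 note: stock transfer was 7.5 nL into about 10 µL; 0% = median of vehicle wells and 100% = median of positive control wells; one replicate is shown; the record names a cut of 25% in any replicate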
# Target sequence (Q9QR71 whole entry, looked up): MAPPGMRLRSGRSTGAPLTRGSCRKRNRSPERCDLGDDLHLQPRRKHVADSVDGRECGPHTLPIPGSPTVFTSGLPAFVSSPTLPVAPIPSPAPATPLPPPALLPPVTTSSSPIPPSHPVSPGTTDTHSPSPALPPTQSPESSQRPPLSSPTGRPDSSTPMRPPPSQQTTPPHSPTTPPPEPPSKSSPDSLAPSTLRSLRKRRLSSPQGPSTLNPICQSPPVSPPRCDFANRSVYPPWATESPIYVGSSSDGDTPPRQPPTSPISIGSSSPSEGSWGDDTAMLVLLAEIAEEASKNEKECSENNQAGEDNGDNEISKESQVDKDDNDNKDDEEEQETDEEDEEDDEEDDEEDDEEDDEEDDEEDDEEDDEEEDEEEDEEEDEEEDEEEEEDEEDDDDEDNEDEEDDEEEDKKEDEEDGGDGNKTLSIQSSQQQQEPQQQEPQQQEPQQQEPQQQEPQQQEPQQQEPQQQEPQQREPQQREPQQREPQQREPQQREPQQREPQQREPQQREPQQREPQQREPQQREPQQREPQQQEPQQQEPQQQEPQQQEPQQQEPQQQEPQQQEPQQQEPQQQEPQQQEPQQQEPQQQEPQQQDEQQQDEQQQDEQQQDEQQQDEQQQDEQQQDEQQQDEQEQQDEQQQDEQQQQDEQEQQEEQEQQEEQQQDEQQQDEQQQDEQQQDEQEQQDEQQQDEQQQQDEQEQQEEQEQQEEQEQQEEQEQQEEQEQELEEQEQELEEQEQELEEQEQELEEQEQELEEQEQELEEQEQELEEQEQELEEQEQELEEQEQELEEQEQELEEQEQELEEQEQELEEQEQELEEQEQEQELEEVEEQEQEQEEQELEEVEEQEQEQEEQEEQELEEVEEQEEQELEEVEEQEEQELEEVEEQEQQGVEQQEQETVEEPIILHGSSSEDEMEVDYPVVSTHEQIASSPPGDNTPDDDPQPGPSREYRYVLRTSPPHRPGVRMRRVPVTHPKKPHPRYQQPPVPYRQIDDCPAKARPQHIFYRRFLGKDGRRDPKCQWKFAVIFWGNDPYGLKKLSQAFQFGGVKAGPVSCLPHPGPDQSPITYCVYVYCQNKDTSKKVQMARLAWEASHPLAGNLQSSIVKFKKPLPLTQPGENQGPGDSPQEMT
# UCH37 inh: human UCH37 deubiquitinating enzyme inhibition; purified proteasome/UCH37, Ub-AMC cleavage fluorescence; 330,000 tested, 0.33% active; AID 588478; inhibition, % (no concentration beside the values);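 active = mean of two replicates above 20%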;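 note: 0% = compound-free wells with enzyme and 100% = wells lacking proteasome; stock transfer was 100 nL into about 20 µL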
#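 system = Proteasome-associated human UCH37 deubiquitinase | amount = 0.15 nM proteasome as dispensed | medium = pH 7.4 Tris-HCl (50 mM) with ovalbumin, ATP-MgCl2, DTT | incubation = 30 min preincubation with enzyme, 25 min cleavage at room temperature | detection = AMC fluorescence 355/460 nm | read-out basis = percent inhibition | controls = no-proteasome and no-compound wells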
# Vif A3G: inhibitors of Vif binding to APOBEC3G peptide, primary screen, biochemical, TR-FRET, GST-Vif 1-94, biotin-A3G peptide, dose response retest (AID 1117319) | TR-FRET GST-Vif / biotin-A3G peptide binding; higher % means a stronger effect; test concentration not given here; strong numbers were not always called active | inhibition, %, or IC50 in µM where a hit was titrated | 260,000 tested, 0.57% active;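 active = above the screen mean plus three standard deviations and confirmed in dose response; inconclusive = results disagree or hit not tested in dose response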;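 note: Vif residues 1-94 fused to GST binding biotinylated APOBEC3G peptide 110-148; 0% = full assay without inhibitor and 100% = GST in place of GST-Vif; retest series ran down from 100 µM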
# An asterisk follows results filed as active; i = inactive; ? = inconclusive; . = no result given; & = joins results of further samples. Random draw from the library; 2.1% or so of the library scored in one or more.
SMILES,A1 inh,HNF4A DNA FP,Ecoli growth,B2AR ag,LANA-H2A inh,UCH37 inh,Vif A3G
CCOCCCN(Cc1ccco1)C(=O)c1cc2c(=O)[nH]c3ccc(C)cc3c2s1,.,3.1,0.74,3,-1.7,-70,-6%
Cc1c(N=Cc2cccnc2)c(=O)n(-c2ccccc2)n1C,1.6,1.6,0.76,0,0.5,0.9,-1%
COc1ccccc1NC(=O)c1ccc(N)cc1,-1.1,2.2,0.7,-2,1.4,4.8,-4%
COc1ccccc1[C@H]1C(c2ccc(F)cc2)=NN(c2ccccc2)[C@@H]1CO,.,2.1,0.71,5,.,-491,-5%
O=C(O)C1CC=CCC1C(=O)Nc1ccc(S(=O)(=O)N2CCCc3ccccc32)cc1 (stereo not drawn),-0.1,1.4,0.72,-4,-4.8,-0.9,2%
O=S1(=O)CC/C(=N\O)c2ccccc21,0.6,-3.4,.,1,0.3,.,19%
Fc1ccc(Nc2nc(N/N=C/c3ccco3)nc(N3CCCCC3)n2)cc1,0.6,-0.5,.,5,6.8,.,2%
CCc1ccc(C(=O)Nn2c(C)nc3ccccc3c2=O)cc1,-2.4,-0.8,0.66,-2,-2.2,2.8,2%
CCOC(=O)c1cc2sccc2n1CC(=O)Nc1ccc(OC)cc1,-0.6,3.0,0.73,-7,10,6.8,-16%
COc1cc(OC)c(C2NC(=O)CCC2[N+](=O)[O-])cc1OC (stereo not drawn),0.5,0.1,0.68,-3,0.6,0.3,-1%
CCOC(=O)Cn1cnc2c(cnn2-c2ccc(OC)cc2)c1=O,0.0,-1.3,0.7,5,-1.4,5.3,.
CCCCCCOc1ccc(N2C(=O)CC(N(CCc3ccc(S(N)(=O)=O)cc3)C(C)=O)C2=O)cc1 (stereo not drawn),0.4,3.8,0.7,-8,-6.5,4.0,-1%
O=c1c2ccccc2c(-c2ccccc2)nn1-c1cc(Cl)cc(Cl)c1,0.4,2.7,0.61,-1,-2.6,-2.7,5%
COc1cc(NC(C)CCCNC(C)C)c2ncccc2c1OC (stereo not drawn),.,-11,.,1,.,.,3%
CC1CCc2[nH]c3ccc(C(=O)O)cc3c2C1 (stereo not drawn),-0.4,-0.9,0.69,-1,0.2,4.5,.
CCC(=O)Nc1ccc(C(=O)NNC(=O)c2ccccc2)cc1,0.7,1.9,0.66,-4,8.1,1.9,5%
O=C(CC1NCCNC1=O)NC1Cc2ccccc2C1 (stereo not drawn),0.3,1.8,0.69,-5,-13,1.2,2%
S=C(Nc1cccc(Cl)c1)Nc1ccccc1Oc1ccccc1,0.5,1.3,0.64,-2,1.6,2.7,2%
CCOC(=O)/C(C#N)=C\c1ccc(N2CCN(C/C=C/c3ccccc3)CC2)cc1,0.1,6.0,.,-2,-0.2,0.7,3%
COC(=O)C(C)Sc1nc2c(c(=O)n(C)c(=O)n2C)n1CCC(C)C (stereo not drawn),-1.3,-2.0,0.62,-130,-4.9,3.0,0%
CCOc1ccccc1/C=N/NC(=O)Cc1csc(Nc2cccc(C(F)(F)F)c2)n1,0.8,0.2,.,-18,-0.7,.,14%
CS(=O)(=O)N(CC(=O)NCc1ccco1)c1ccc(Cl)c(C(F)(F)F)c1,-0.2,-2.1,0.76,-7,0.5,2.0,5%
Cc1ccc(NC(=O)Cn2c(=O)oc3ccccc32)c(C)c1,0.1,-0.7,0.63,-3,3.7,0.2,.
N#CCOc1ccc(C2=NO[C@@H]3[C@@H]4C[C@@H]([C@H]5C(=O)N(c6ccc7c(c6)OCO7)C(=O)[C@@H]45)[C@H]23)cc1,0.4,0.7,0.7,1,-0.2,0.0,.
O=C(CSc1ncc(C(F)(F)F)cc1Cl)N1CCNC1=O,0.1,0.4,0.69,-15,-2.2,-0.4,.
# Next part.
SMILES,A1 inh,HNF4A DNA FP,Ecoli growth,B2AR ag,LANA-H2A inh,UCH37 inh,Vif A3G
C=CCN(CC=C)c1nc2ccccc2nc1C(C#N)C(=O)OC(C)C (stereo not drawn),2.4,7.0,0.75,0,1.6,-49,25%
NC(=O)CCC(NS(=O)(=O)c1ccc(Cl)cc1)C(=O)NCc1ccc(Cl)cc1 (stereo not drawn),0.0,0.2,0.69,-3,-0.5,2.1,4%
N#Cc1c(N)nc(SCC(=O)NCc2ccc3c(c2)OCO3)c(C#N)c1-c1cccs1,0.0,1.2,0.77,-4,-1.6,-35,2%&-49%
CCOC(=O)N1CCC(N2CCN(C3CCCC3)C(CCO)C2)CC1 (stereo not drawn),-0.3,0.9,0.66,5,-0.6,2.2,5%
CC(C)CCNC(=O)CCNS(=O)(=O)c1ccc(Cl)cc1,0.7,0.3,0.67,10,-11,1.1,8%
COc1ccc(CCNC(=O)C2CCN(C(=O)c3ccc(C(C)(C)C)cc3)CC2)cc1OC,0.5,5.5,0.69,7,3.9,1.8,.
COc1cccc(NC(=O)Nc2cnccn2)c1,-2.2,3.3,0.67,1,2.6,-1.0,?
CCOC(=O)CCC(NC(=O)CCCCCCCC(=O)NC(CCC(=O)OCC)C(=O)OCC)C(=O)OCC (stereo not drawn),1.3,21,0.72,0,0.1,3.5,0%
COC(=O)c1nc(N)sc1-c1ccccc1,0.3,0.1,0.75,4,0.0,-11,-6%
C(=N\Nc1nc(-c2ccccc2)cs1)/c1cccnc1,0.6,0.7,.,-14,-3.9,.,?
CCc1noc(C)c1C(=O)Nc1cc(Cl)ccc1N1CCOCC1,-0.4,-1.3,0.7,-1,2.9,3.7,1%
Cc1ccnc(NC(=O)Cc2c(F)cccc2Cl)c1,-0.3,-4.5,0.63,-8,-3.9,2.5,5%
Nn1cc(-c2ccccc2)nc1SCC(=O)NCC1CCCO1 (stereo not drawn),0.6,-1.1,0.66,4,-1.8,-0.1,-5%
O=C(O)c1ccc2cccc(O)c2n1,0.1,0.0,.,-2,0.3,.,30%
COc1ccnc2c1c(=O)n(Cc1c(F)cccc1Cl)c(=O)n2C,-0.2,2.9,0.72,-4,8.1,-3.1,.
COc1ccc(COC(=O)c2ccc(C)c(S(=O)(=O)N3CCOCC3)c2)cc1F,0.3,-0.8,0.7,5,2.9,2.4,-2%
O=C(Nc1ccc(C(=O)N2CCCC2)cc1)c1cccc(C(F)(F)F)c1,-1.9,1.6,0.66,-1,-1.6,1.1,-1%
Cn1nnc2c[n+](CC(=O)c3ccc(Cl)cc3)cc(Br)c21,1.3,5.4,0.61,26,-0.6,3.7,-1%
CC(C)(C)c1nc(SCC(=O)NNC(=O)c2ccccc2)c2ccccc2n1,-0.1,-0.2,0.64,-7,-3.0,2.6,.
COc1cccc(-c2ncc3ccccc3c2CO)c1,1.3,2.4,0.67,-9,4.5,0.8,.
CC(=O)NCCCC(=O)NC(CCC(=O)OCc1ccccc1)C(=O)OCc1ccccc1 (stereo not drawn),0.4,-3.6,0.65,3,-11,1.8,-6%
O=C(c1ccc2nc3ccccc3c(=O)n2c1)N1CCN(Cc2ccc3c(c2)OCO3)CC1,0.8,39*,0.73,3,-0.5,i,?
CN(C)CCCNCCCNC(=O)/C(=N\O)c1ccccn1,1.6,1.9,.,-1,-1.0,.,12%
COc1cccc(-c2nnn(CC(C)=O)n2)c1,-0.3,-5.6,0.71,2,1.5,-0.5,14%
COC(=O)c1ccccc1NC(=O)CN1CCN(c2ccccn2)CC1,0.0,-0.4,0.69,-3,1.2,-0.3,-3%

# Reformatted: 3 of the compounds above
smiles	A1 inh	HNF4A DNA FP	Ecoli growth	B2AR ag	LANA-H2A inh	UCH37 inh	Vif A3G
CCOC(=O)CCC(NC(=O)CCCCCCCC(=O)NC(CCC(=O)OCC)C(=O)OCC)C(=O)OCC (stereo not drawn)	1.3	21	0.72	0	0.1	3.5	0%
C(=N\Nc1nc(-c2ccccc2)cs1)/c1cccnc1	0.6	0.7	.	-14	-3.9	.	?
Cc1ccnc(NC(=O)Cc2c(F)cccc2Cl)c1	-0.3	-4.5	0.63	-8	-3.9	2.5	5%

# Printed as active in HNF4A DNA FP, of those listed so far:
molecule	HNF4A DNA FP	Ecoli growth	B2AR ag	LANA-H2A inh	UCH37 inh	Vif A3G
O=C(c1ccc2nc3ccccc3c(=O)n2c1)N1CCN(Cc2ccc3c(c2)OCO3)CC1	39*	0.73	3	-0.5	i	?

# More compounds.
SMILES,A1 inh,HNF4A DNA FP,Ecoli growth,B2AR ag,LANA-H2A inh,UCH37 inh,Vif A3G
CS(=O)(=O)N1CCN(c2ccc(NC(=O)c3ccc(Br)o3)cc2)CC1,-0.4,0.9,0.72,0,-0.2,5.7,16%
CC1CCCCC1NC(=O)Cn1c(=O)cnc2ccccc21 (stereo not drawn),-0.3,-1.6,0.65,0,9.0,-23,-3%
O=C(CCN1C(=O)/C(=C/c2ccccc2Cl)SC1=S)NC1CCS(=O)(=O)C1 (stereo not drawn),-2.2,-4.0,.,-1,-0.2,.,.
Cc1ccc(-n2nnc(-c3cccnc3)n2)cc1,-6.6,-6.6,0.78,-9,-0.2,-15,.
CNc1cc(CS(=O)c2ccccc2)nc(-c2ccccc2)n1 (stereo not drawn),0.2,4.9,0.76,-8,-1.5,-1.6,-3%
CCc1ccc(N2CC(C(=O)Nc3ccc(S(=O)(=O)Nc4nccs4)cc3)CC2=O)cc1 (stereo not drawn),0.2,3.5,0.7,1,-1.6,1.1,.
CC(C)(C)c1cc(CCC(=O)NNC(=O)c2ccncc2)cc(C(C)(C)C)c1O,.,-0.3,0.67,12,.,0.1,.
CCC(C)C(=O)Nc1cc(C(=O)OC)ccc1C(=O)OC (stereo not drawn),0.7,-2.6,0.73,11,-0.4,-5.9,5%
COc1cc(-n2nc(C)c3c2OC(N)=C(C#N)C3c2ccccc2)c(Cl)c(Br)c1O (stereo not drawn),0.1,6.1,.,13,3.7,.,9%
Cc1ccc(OCCN2CCN(C(=O)CCC(=O)Nc3nnc(C(C)C)s3)CC2)cc1,0.0,1.4,0.68,-9,-1.1,5.8,-1%&0%
O=C(NCc1ccc2c(c1)OCO2)c1ccc2snnc2c1,?,-1.1,0.72,-2,4.0,-6.2,2%&6%
O=C(c1nc2ccc(Cl)cn2c1CNCC[C@@H]1C[C@@H]2C=C[C@H]1C2)N1CCCCCCC1,0.5,-0.9,0.67,-1,1.3,-1.1,.
Cc1cccc(N(C(=O)CCC(=O)Nc2cc(C)on2)C(C(=O)NC2CCCC2)c2ccncc2)c1 (stereo not drawn),0.0,-1.3,0.68,-10,-2.6,4.3,30%
C/C(CC(=O)Nc1ccc(N(C)C)cc1)=N\NC(=O)c1ccc(F)cc1,1.0,-1.6,.,2,7.5,.,-12%
Cc1ccc(OCC(=O)NCc2ccccn2)c(Br)c1,-1.4,0.6,0.68,-1,12,1.3,-6%
COc1ccccc1-n1c(SCC(=O)NC2CCCC2)nc2cccnc21,?,0.9,0.74,8,-2.6,-0.1,0%
CCOCCc1c(O)nc(SCC(=O)N2CCOCC2)[nH]c1=O,-0.1,-1.0,0.66,-6,-1.8,6.0,.
CCOc1ccc(/C=N/NC(=O)C2(O)c3ccccc3-c3ccccc32)cc1,0.9,-4.0,.,2,-1.8,.,11%
CC1Cc2ccccc2N1C(=O)C1CCN(S(=O)(=O)Cc2ccccc2)CC1 (stereo not drawn),4.1,1.2,0.76,5,3.0,4.8,12%
CC#CCCCC(=O)Nc1cccc(C(=O)O)c1,-1.6,-3.6,0.68,5,2.5,2.3,25%
CN(Cc1ccccc1)c1nc2c(c(=O)[nH]c(=O)n2C)n1Cc1ccccc1,0.2,0.9,0.72,6,-0.5,1.7,4%
S=c1[nH]nc(-c2ccc(Cl)cc2Cl)n1-c1ccc2c(c1)OCCO2,0.5,-2.1,0.67,4,-0.3,1.4,-2%
O=[N+]([O-])c1cc([N+](=O)[O-])c(Oc2ccccc2F)cc1NN1CCCCC1,-0.7,-3.4,0.7,7,1.0,5.0,.

# Screening results deposited in PubChem BioAssay by several laboratories.
